UUG fidelity = alters start codon recognition fidelity in yeast | S. cerevisiae UUG-firefly luciferase reporter, luminescence/redox ratio | activity score, % at 18.7 µM | hit rate 0.13% among 350,000 | AID 602363;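 active = replicate mean at a twofold rise or more, about +100% in these data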;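 note: firefly luciferase made from a UUG start codon reports start codon fidelity; reporter light over untreated wells divided by growth signal over untreated wells; some hits fall short of that in this replicate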
PABP FP inh = blocks human PABP binding to poly(A) RNA | inhibition, % at 35 µM | fluorescence polarization | hit rate 1% among 290,000;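 active = 50% or more with normal probe brightness, or confirmed in later tests; inconclusive = above 50% with abnormal brightness, or retests that disagree; inactive = below 50% or failed in later tests; about a fifth of its hits are not listed in these tables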;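 note: calls also rest on retests at 20 µM and on dose response follow-up; controls were probe without protein and protein plus probe with vehicle; some compounds called inactive have numbers as strong as hits; many hits fall short of the cut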
Target sequence (P11940 whole entry, looked up): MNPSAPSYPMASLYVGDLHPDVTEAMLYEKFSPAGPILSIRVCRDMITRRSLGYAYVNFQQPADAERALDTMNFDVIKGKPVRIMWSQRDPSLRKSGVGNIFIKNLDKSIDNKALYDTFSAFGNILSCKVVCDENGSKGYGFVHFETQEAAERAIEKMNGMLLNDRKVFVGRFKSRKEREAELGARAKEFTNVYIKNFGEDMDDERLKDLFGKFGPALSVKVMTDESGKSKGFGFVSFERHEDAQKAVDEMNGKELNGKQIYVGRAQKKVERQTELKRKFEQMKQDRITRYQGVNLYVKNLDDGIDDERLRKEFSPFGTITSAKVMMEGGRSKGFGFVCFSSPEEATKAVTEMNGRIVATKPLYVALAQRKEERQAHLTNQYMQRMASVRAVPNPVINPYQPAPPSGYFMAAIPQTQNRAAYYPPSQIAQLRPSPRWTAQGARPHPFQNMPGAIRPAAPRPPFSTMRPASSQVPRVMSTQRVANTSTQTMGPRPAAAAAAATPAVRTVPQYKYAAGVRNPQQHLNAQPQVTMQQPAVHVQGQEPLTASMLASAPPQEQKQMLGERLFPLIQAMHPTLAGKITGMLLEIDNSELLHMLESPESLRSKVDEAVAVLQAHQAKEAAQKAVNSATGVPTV
MT1-MMP act inh = blocks activation of human MT1-MMP | P50281 | HT1080 RFP-PRO-GFP cells, GFP/RFP ratio fluorescence, overnight; percent of plate control window, DMSO zero | GFP/RFP ratio change, % at 20 µM | hit rate 0.061% among 360,000 | AID 651647;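 active = GFP/RFP ratio change of at least 30% with cell ATP level not reduced by more than half and red fluorescence within 50% of control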; note: strong numbers were not always called active
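Material – HT1080 RFP-PRO-GFP cells · Control set – DMSO wells and RFP-L50D-GFP cells · Incubation – overnight cell settling, then overnight compound exposure, 37 °C, 5% CO2 · Compound dosing – single-point 20 µM compound, 1% DMSO · Read-out – GFP/RFP fluorescence ratio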
Env fusion inh = HIV envelope-mediated fusion inhibition. HeLa-JRFL Env/CEM21 cell fusion, luciferase. inhibition, % at 12.3 µM. hit rate 1.1% among 360,000. AID 651610;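 active = mean replicate inhibition score of at least 50 and every replicate individually at or above 50; inconclusive = only one of the two criteria met; inactive = mean below 50 and not all replicates reaching 50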;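 note: 0% = plate neutral controls and 100% = maraviroc near 300 nM; one replicate is shown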
Rce1 inhib = blocks yeast Ras-converting enzyme | yeast membranes, quenched prenylated peptide cleavage fluorescence | calls only | hit rate 0.27% among 290,000 | AID 2563;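 active = fall in fluorescence gain of 50% or more versus controls, with final raw signal at or below 3038400; inconclusive = same 50% fall but final raw signal above 3038400; inactive = fall in fluorescence gain under 50%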;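 note: plate controls were neutral control wells for no effect and wells lacking membranes for full effect; tested at 10 µM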
Target sequence (Q03530 whole entry, looked up): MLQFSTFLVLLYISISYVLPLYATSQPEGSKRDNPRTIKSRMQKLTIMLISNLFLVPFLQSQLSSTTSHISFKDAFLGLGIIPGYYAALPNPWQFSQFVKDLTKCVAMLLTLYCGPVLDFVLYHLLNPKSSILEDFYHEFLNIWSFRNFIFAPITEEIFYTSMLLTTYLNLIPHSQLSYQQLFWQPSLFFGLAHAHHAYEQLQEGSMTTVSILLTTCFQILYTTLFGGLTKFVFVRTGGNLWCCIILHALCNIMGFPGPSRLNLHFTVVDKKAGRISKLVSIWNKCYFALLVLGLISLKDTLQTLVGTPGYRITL
eIF4H FP inh = inhibitors of RNA binding by human eIF4H. Q15056. hit rate 0.94% among 290,000. AID 2012. eIF4H fluorescence polarization binding assay. inhibition, % at 35 µM;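 active = 50% or more with normal probe brightness, or confirmed in later tests; inconclusive = above 50% with abnormal brightness, or retests that disagree; inactive = below 50% or failed in later tests; about a fifth of its hits are not listed in these tables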;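 note: calls also rest on retests at 20 µM and on dose response follow-up; 0% = protein and probe with vehicle and 100% = probe without protein; strong numbers were not always called active; many hits fall short of the cut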
CSC inhib = blocks cancer stem cells; cancer stem cell-like cells viability, luminescence; inhibition, % at 7.5 µM; hit rate 1.1% among 300,000; AID 2717;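 active = mean at 75% or more and at least half the replicates too; inconclusive = mean and replicates disagree; tested in HMLE shEcad cells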;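 note: 0% = median of negative and 100% = median of positive control wells; the first replicate is given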
eIF4H FP inh retest = recorded beside eIF4H FP inh, whose call it bears; inhibition, %; compound at 20 µM; confirmation average;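 mean of two retest wells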
PABP FP inh retest = recorded beside PABP FP inh, whose call it bears; inhibition, %; compound at 20 µM; confirmation repeats;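 mean of two retest wells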
MT1-MMP act inh RFP = second read-out of MT1-MMP act inh, no call of its own (marks repeat the call); RFP signal change, %; measured here: RFP expression control read;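 0 = vehicle wells; hits needed this value within 50% of zero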
Numbers without * were called inactive; i = inactive; u = inconclusive; x = not tested or not shown; & = joins results of further samples. The list is partial (hit frequency here may not be typical).

SMILES | UUG fidelity | PABP FP inh | MT1-MMP act inh | MT1-MMP act inh RFP | Env fusion inh | Rce1 inhib | eIF4H FP inh | CSC inhib | others
COC(=O)C1=C(c2cccc(OCc3ccccc3)c2)C[C@@H]2CC[C@H]1N2C(=O)NCc1ccc2[nH]ccc2c1 | -20 | x | 3 | -6 | -78 | x | x | 31
Cn1c(O)c(C2=NNC(c3ccc(Cl)cc3)C2)c(=O)n(C)c1=O (stereo not given) | -21 | 6 | 2 | 5 | 6 | i | 1 | 1
CC(C)(Cl)[N+](=O)[O-] | 6 | x | -1 | 9 | x | x | x | -15
COC(=O)C1=C(c2ccc(F)cc2F)C[C@@H]2CC[C@H]1N2C(=O)N1CCCC1 | 0 | x | 2 | 1 | -2 | x | x | -5
CCCCCCOc1ccc(CN2CCN(C)CC2)cc1 | x | 14 | -2 | 0 | x | i | -4 | x
CCOc1ccc(-n2c(-c3cccs3)nc3ccccc3c2=O)cc1 | x | -3 | -4 | -6 | 7 | i | -1 | x
CNC(=O)Oc1cccc(-c2cn3cc(OC(=O)NC)ccc3n2)c1 | x | 3 | x | x | x | x | u | 31
CC1CC(C)CN(C(=O)COC(=O)c2cn(C)c3ccccc23)C1 (stereo not given) | -2 | x | -2 | -2 | 22 | x | x | x
COc1cccc(C)c1NC1=NCCO1 | 1 | x | 4 | 6 | 12 | x | x | x
CCCCCCCCN=Cc1c(O)[nH]c(=O)[nH]c1=O | -12 | 10 | -4 | -5 | -6 | i | 5 | 21
C#CCOC(=O)C1=CCCN(C)C1 | -7 | x | 2 | 2 | 12 | x | x | -2
Cn1c(O)c(/C=C2/C=CC=N2)c(=O)[nH]c1=O | x | 8 | 7 | 23 | -125 | i | 4 | 0
C[C@]12C=CC(=O)C=C1CC[C@@H]1C2CC[C@]2(C)OC(=O)CCC12 (stereo not given in full) | -22 | -1 | 5 | 5 | -9 | i | 4 | -2
O=C(O)c1sc2cc(Cl)ccc2c1Cl | x | 12 | x | x | x | i | -2 | -6
COC(=O)C(O)(c1ccc(N(C)C)cc1)C(F)(F)F (stereo not given) | -12 | 4 | -3 | 1 | 4 | i | -6 | 2
O=[N+]([O-])c1cc(F)c(N2CCCCC2)cc1Br | -15 | 2 | -1 | 5 | -5 | i | -8 | -11
COc1ccccc1N1C(=O)NC(=O)/C(=C/c2ccc3c(c2)Cc2ccccc2-3)C1=O | x | -2 | -2 | -3 | -14 | i | u | -22
COCCNC(=O)c1c(N)n(Cc2ccco2)c2nc3ccccc3nc12 | -34 | u | -61 | 8 | -33 | i | u | 5
ClC1=CCC2CN(CCN3CCCCC3)CC2C1 (stereo not given) | -10 | 12 | 6 | 8 | 7 | i | -2 | -8
COC(=O)C1=C(c2cccc(OC)c2OC)C[C@@H]2CC[C@H]1N2C(=O)NCCCOC(C)C | -4 | x | -1 | 2 | 3 | i | x | -14
CCC[N+]12CCC(CC1)C(C(O)(c1ccccc1)c1ccccc1)C2 (stereo not given) | -3 | -4 | 3 | 3 | 10 | i | -8 | 6
Oc1cc2c(cc1CN1CCN(c3ccc(F)cc3)CC1)OCO2 | -9 | 0 | 6 | -2 | 1 | i | 7 | -15
CCCCn1c(O)c(C=NC2CC3CCC2(C)C3(C)C)c(=O)[nH]c1=O (stereo not given) | -22 | -5 | -7 | -12 | 29 | i | -7 | x
COc1ccc(C2SCC(=O)Nc3c2c(C)nn3C2CCOC(C)(C)C2)cc1OC (stereo not given) | -5 | 6 | -4 | 1 | -33 | i | -1 | -5
COc1cc2c(c(OC)c1OC)-c1ccc(O)c(=O)cc1C(NC(C)=O)CC2 (stereo not given) | -14 | -1 | 23 | 1 | -170 | i | -15 | 37
Cn1c(O)c(/C=N/c2ncccn2)c(=O)n(C)c1=O | -11 | 85 | -15 | 2 | -44 | i | 96 | 1 | eIF4H FP inh retest=0;PABP FP inh retest=13
CCCCCCNC(=O)N[C@@H](Cc1ccc(O)cc1)C(=O)NCCC[C@H]1CN2C(=NC[C@H]2C)N1CC1CCC1 | x | -5 | x | x | x | i | -2 | -15
COc1ccc(C(CN(C)C)C2(O)CCCCC2)cc1 (stereo not given) | 2 | x | -2 | 1 | 1 | i | x | -13
CC(NC1=NCCS1)c1ccccc1 (stereo not given) | x | -8 | -3 | 0 | 11 | i | 0 | -12
COc1ccc(CCNC2CCCCCC2)cc1 | -22 | 0 | -2 | 1 | -11 | i | 2 | -20
N#CC(C#N)=C(C#N)c1ccc(Nc2ccccc2)cc1 | -34 | 9 | -3 | 1 | -1 | i | 7 | 93*
CN1CCN(Cc2ccccc2C(F)(F)F)CC1 | -15 | 42 | 0 | 3 | -12 | i | -7 | 2
COc1ccccc1CCNC(=O)CCC(=O)N1CC2C[C@@H](C1)Cn1c2cccc1=O | -9 | -6 | 5 | 2 | x | i | 7 | -10
COc1ccc(C(=O)C2CCCN(CC3CCCCC3)C2)cc1OC (stereo not given) | -30&-2 | x | 0 | 2 | 11 | x | x | x
CCCCn1nnnc1C(c1cccs1)N1CCC2(CC1)C(=O)NCN2c1ccccc1 (stereo not given) | 3 | x | 5 | -1 | -195 | x | x | x
NC(=O)CN1C2CCC1CC(NC(=O)C1CC1)C2 (stereo not given) | -26 | -6 | 3 | 8 | -2 | i | -2 | -4
CCCn1c(C)cc(C=O)c1C | x | 17 | -2 | -2 | -18 | i | 6 | -5
CC1CN(c2ccccn2)C(C)CN1C(=O)C(O)(c1ccccc1)c1ccccc1 (stereo not given) | -18 | x | -5 | 1 | -10 | x | x | x
C[C@]12CC[C@@H](O)CC1=CCC1C2CC[C@]2(C)C(=O)[C@H](F)CC12 (stereo not given in full) | -10 | x | 3 | 2 | 4 | x | x | -9
COC(=O)C1=C(c2cccc(OCc3ccccc3)c2)C[C@@H]2CC[C@H]1N2C(=O)NCc1ccc(N(C)C)cc1 | -16 | x | 0 | -15 | 4 | x | x | 64
C=CCC1(CN2CCCC2=O)C(=O)NC(=O)NC1=O | -7 | 6 | -1 | 5 | x | i | -5 | -15
COC(=O)C1=C(c2ccccc2OCc2ccccc2)C[C@@H]2CC[C@H]1N2C(=O)NCc1cccc(F)c1 | -4 | x | -5 | -6 | -5 | x | x | 16
CCCNC1=C(C)C(=O)C2=C(C1=O)C(COC(N)=O)[C@]1(OC)C3NC3CN21 (stereo not given in full) | -7 | 37 | -4 | -2 | 32 | i | 40 | -14
O=C1NC(=O)C(=Cc2ccc(N3CCOCC3)o2)C(=O)N1 | x | 2 | -23 | 1 | 21 | x | u | -1
O=P(N1CC1)(N1CC1)N1CCc2ccccc21 | -18 | x | 1 | 4 | 44 | x | x | x
COC(=O)C1=C(c2cc3ccccc3o2)C[C@@H]2CC[C@H]1N2C(=O)NCc1ccc(C(F)(F)F)cc1 | 18 | x | 2 | -8 | 16 | i | x | 45
O=C1NCN(c2ccccc2)C12CCN(C(c1ccccc1)c1nnnn1Cc1ccccc1)CC2 (stereo not given) | -12 | x | 0 | -1 | -319 | x | x | x
C[C@@H]1CN([C@H](C)CO)C(=O)CCCn2nncc2CO[C@H]1CN(C)C(=O)Oc1ccc2ccccc2c1 | 2 | x | -2 | 4 | -1 | x | x | x
O=c1[nH]c(=S)n(C2CC2)c(O)c1C=NCc1cccnc1 | x | 8 | x | x | x | i | 0 | -5
Cn1c(O)c(/C=C2\C=c3ccccc3=NC2=O)c(=O)n(C)c1=O | -13 | -5 | -2 | 2 | 10 | i | -2 | -4
CCN1CC2C3CCC(C)(O3)C2C1 (stereo not given) | x | 9 | 6 | 3 | 3 | i | 0 | 13
Cc1cc(C)nc(NC2=NCCS2)n1 | -26 | 5 | 1 | 5 | x | i | -10 | -14
Cc1ccc2[nH]c3c(c2c1)CN(C(=O)CN1C[C@H]2C[C@@H](C1)c1cccc(=O)n1C2)CC3 | -18 | 35* | -9 | 3 | x | i | 69 | -8 | eIF4H FP inh retest=47;PABP FP inh retest=95*
O=[N+]([O-])c1ccc(N2CCCCC2)c2ncccc12 | -2 | 10 | 7 | -3 | -23 | x | 2 | -11
COC(=O)C(O)(c1ccc(NC(=S)NC(=O)c2ccc(Cl)cc2Cl)cc1)C(F)(F)F (stereo not given) | x | -12 | -6 | -19 | x | i | -3 | 12
CCC1(C(=O)c2ccccc2)C2c3ccccc3OC(=O)C21C(C)=O (stereo not given) | 10 | -9 | -1 | 2 | 1 | i | -6 | -4
COC(=O)C1=C(c2c(C)noc2C)C[C@@H]2CC[C@H]1N2C(=O)NCCOc1ccccc1 | -20 | x | -1 | 0 | 8 | x | x | -9
CCCc1cc(=O)oc2cc(OCC(=O)N3CCN(Cc4ccc5c(c4)OCO5)CC3)ccc12 | 0 | -9 | 2 | 4 | 18 | i | -8 | 5
O=[N+]([O-])c1cnc2ccc3ccccc3c2c1 | -11 | 3 | -7 | 1 | -6 | i | 2 | 3
COC(=O)C1=C(c2cc3ccccc3s2)C[C@@H]2CC[C@H]1N2C(=O)NCCO | -4 | x | 2 | -1 | -9 | i | x | -6
The listing continues.
SMILES | UUG fidelity | PABP FP inh | MT1-MMP act inh | MT1-MMP act inh RFP | Env fusion inh | Rce1 inhib | eIF4H FP inh | CSC inhib | others
COC(=O)C1C2c3ccccc3OC1(C)N=c1s/c(=C/c3cn(C)nc3C)c(=O)n12 (stereo not given) | x | 1 | 2 | 3 | x | i | 6 | -13
C[C@@H]1CN([C@@H](C)CO)C(=O)CCCn2nncc2CO[C@@H]1CN(C)C(=O)Oc1cccc2ccccc12 | 12&7 | x | -2 | 1 | -26 | x | x | x
COc1ccc(N2CCN(CCc3ccncc3)CC2)cc1 | -9 | 6 | 5 | 4 | 12 | i | -9 | 5
CC12CN3CCN(C1)CC(C)(C3)C2=NN | x | 6 | -2 | 3 | 0 | i | 4 | 0
Cc1ccc(NC(=O)c2snnc2C)cc1Cl | -5 | -8 | 5 | 3 | 27 | i | 5 | -8
Cc1ccc(/C=C2/Sc3ccc(C(=O)N4CCC5(CC4)OCCO5)cc3NC2=O)cc1 | -14 | u | -19 | -4 | 6 | i | u | 4
C[C@]12CC[C@H]3C(CCC4(O)CC(O)CC[C@]34C=O)C1=CC[C@H]2c1ccc(=O)oc1 (stereo not given in full) | 2 | 14 | -14 | -6 | -346 | i | -6 | 78*
O=C(Cc1ccccc1)N1CCN(Cc2cccnc2)CC1 | -10 | -9 | 0 | 2 | x | i | -7 | 5
Cc1ccc(-n2nc(C)c(C3C(C#N)=C(N)Oc4c3c(=O)oc3ccccc43)c2Cl)cc1 (stereo not given) | x | 17 | x | x | x | i | 6 | x
c1ccc2c3c([nH]c2c1)CNCC3 | 0 | -5 | -2 | 3 | x | i | -9 | -8
COC(=O)CC1NC2CCCCC2NC1=O (stereo not given) | 15 | 8 | 7 | 13 | x | i | -6 | -2
COc1cccc(C(=O)C2CCCN(Cc3ccc4nonc4c3)C2)c1 (stereo not given) | x | -9 | 1 | -6 | 18 | i | -6 | -6

Three structures from above, arranged by SMILES length, smallest number first.
SMILES | UUG fidelity | PABP FP inh | MT1-MMP act inh | MT1-MMP act inh RFP | Env fusion inh | Rce1 inhib | eIF4H FP inh | CSC inhib | others
CC(C)(Cl)[N+](=O)[O-] | 6 | x | -1 | 9 | x | x | x | -15
O=c1[nH]c(=S)n(C2CC2)c(O)c1C=NCc1cccnc1 | x | 8 | x | x | x | i | 0 | -5
CCCc1cc(=O)oc2cc(OCC(=O)N3CCN(Cc4ccc5c(c4)OCO5)CC3)ccc12 | 0 | -9 | 2 | 4 | 18 | i | -8 | 5

Screening results: PubChem, several laboratories
